LT uptake inh: blocks cellular internalization of anthrax lethal toxin; Cells, anthrax lethal toxin internalization, FRET ratio (460/530); Potency, µM (titrated, usually from 40 µM), without a hit: at the top dose activity change, negative = inhibition, hits mostly inhibitors; 70,000 tested, 0.67% active; active = well fitted falling ratio curve with the 530 nm signal flat; inconclusive = other ratio curves, or a change in one channel alone; inactive = flat curves in the ratio and both channels; the % refers to the ratio; also: % is scaled to controls: 0 for no effect and ±100 for the full control effect; nearly all actives have a fitted effect of over 50% in size; tested in ME-180 cells; beta-lactamase reporter
Prx2 Sm inh: blocks S. mansoni peroxiredoxin 2 enzymatic activity; AID 448; Potency, µM; S. mansoni Prx2 activity coupled to TGR/GSH (TGR is thioredoxin glutathione reductase), NADPH fluorescence loss, qHTS; some inactives read as strong as hits; 65,000 tested, 0.07% active; active means full or partial inhibition curve with a strong effect at the top dose; inconclusive means weaker partial or single-point curve; inactive means no accepted curve; also: series up to 57 µM; many of its hits are not listed in these tables
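Prx2 inhibition was measured as reduced NADPH consumption when electrons flowed from NADPH through TGR and glutathione to Prx2 and H2O2. Plates were read kinetically over 8 min; enzyme reagents were held at 4 deg C during dispensing.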
Starred values were filed as active, the others as inactive; ? = inconclusive; . = not tested or not shown; [ ] = dose if it differs, or a comment. Potency is read from the fitted curve at half-maximal effect. An excerpt; the hit share may differ from the screen's.

(1) CS(=O)(=O)N(CC(=O)N1CCN(Cc2ccc3c(c2)OCO3)CC1)c1ccc2c(c1)OCO2
  LT uptake inh: -14.2%	Prx2 Sm inh: >57

(2) O=C(CCc1ccc(CCC(=O)c2cccs2)s1)c1cccs1
  LT uptake inh: .	Prx2 Sm inh: >57

(3) COc1ccccc1N(CC(=O)N1CCCCCC1)S(C)(=O)=O
  LT uptake inh: -0.9%	Prx2 Sm inh: .

(4) CSc1nc2c(c(=O)n1-c1ccccc1)SCC2
  LT uptake inh: 6.9%	Prx2 Sm inh: >57

(5) COc1cc(=O)n(C)c2cc(N(C)C)ccc12
  LT uptake inh: -5.9%	Prx2 Sm inh: >57

(6) Cc1cc(O)c(NC(=O)c2ccco2)cc1C
  LT uptake inh: -16.0%	Prx2 Sm inh: >57

(7) COCCNc1nnc(SCC(=O)N2CCN(S(=O)(=O)c3ccccc3)CC2)s1
  LT uptake inh: -26.2%	Prx2 Sm inh: >57

(8) COc1ccc(NC(=O)CC2CCCCC2)cc1OC
  LT uptake inh: 2.9%	Prx2 Sm inh: .

(9) Cc1cc(C)cc(N2CC(c3nc4ccccc4n3C)CC2=O)c1 (stereo not given)
  LT uptake inh: -16.1%	Prx2 Sm inh: >57

(10) COCCn1c(SCc2cccnc2)nnc1-c1ccco1
  LT uptake inh: -20.0%	Prx2 Sm inh: >57

(11) O=c1c(-c2cccs2)nc2cnc(Oc3cccc(Cl)c3)nc2n1C[C@H]1CCCO1
  LT uptake inh: ?	Prx2 Sm inh: >57

(12) COc1ccc(OCC2CNC(=O)O2)cc1 (stereo not given)
  LT uptake inh: -8.4%	Prx2 Sm inh: >57

(13) CCOC(=O)CNC(=O)c1nn(-c2ccc(OCC)cc2)c(=O)c2ccccc12
  LT uptake inh: -15.9%	Prx2 Sm inh: >57

(14) COc1ccc2sc(NC(=O)c3ccco3)nc2c1
  LT uptake inh: 9.1%	Prx2 Sm inh: >57

(15) O=C(CCn1c(=O)oc2ccccc21)NCCCN1CCN(c2ccc(F)cc2)CC1
  LT uptake inh: ?	Prx2 Sm inh: >57

(16) CCn1c(SCc2nc3ccccc3[nH]2)nnc1-c1cccs1
  LT uptake inh: 0.8%	Prx2 Sm inh: >57

(17) O=C(CCn1c(=O)oc2ccccc21)N1CCCCCC1
  LT uptake inh: 17.9%	Prx2 Sm inh: >57

(18) Cn1c(C(=O)N2CCCC(C(=O)N3CCN(C(=O)c4ccco4)CC3)C2)cc2sccc21 (stereo not given)
  LT uptake inh: -4.6%	Prx2 Sm inh: >57

(19) NS(=O)(=O)c1ccc(CNC(=O)NC23CC4CC(CC(C4)C2)C3)cc1
  LT uptake inh: -17.7%	Prx2 Sm inh: >57

(20) c1ccc(N2CCCCC2)c(NC2=NCCC2)c1
  LT uptake inh: ?	Prx2 Sm inh: >57

Nos. 13–17 of the list above:
(13) CCOC(=O)CNC(=O)c1nn(-c2ccc(OCC)cc2)c(=O)c2ccccc12
  LT uptake inh: -15.9%	Prx2 Sm inh: >57

(14) COc1ccc2sc(NC(=O)c3ccco3)nc2c1
  LT uptake inh: 9.1%	Prx2 Sm inh: >57

(15) O=C(CCn1c(=O)oc2ccccc21)NCCCN1CCN(c2ccc(F)cc2)CC1
  LT uptake inh: ?	Prx2 Sm inh: >57

(16) CCn1c(SCc2nc3ccccc3[nH]2)nnc1-c1cccs1
  LT uptake inh: 0.8%	Prx2 Sm inh: >57

(17) O=C(CCn1c(=O)oc2ccccc21)N1CCCCCC1
  LT uptake inh: 17.9%	Prx2 Sm inh: >57

Next entries
(21) O=C(Nc1cccc(Cl)c1)c1ccncc1
  LT uptake inh: .	Prx2 Sm inh: >57

(22) CCOc1ccc(N2C(=O)c3cccnc3C2Nc2ccc(C)cc2)cc1 (stereo not given)
  LT uptake inh: 21.0%	Prx2 Sm inh: >57

(23) CCCS(=O)(=O)N1CCCC(C(=O)NCCN(CC)CC)C1 (stereo not given)
  LT uptake inh: -4.2%	Prx2 Sm inh: >57

(24) CCOC(=O)c1c(C)c(C(=O)NC(C)COC)c(C)n1CC (stereo not given)
  LT uptake inh: -7.3%	Prx2 Sm inh: >57

(25) Cc1ccoc1C(=O)NCc1occc1C(=O)O
  LT uptake inh: 2.5%	Prx2 Sm inh: .

(26) COc1ccc(-n2c(=O)c(-c3cccc(Cl)c3)nc3cncnc32)cc1
  LT uptake inh: -4.9%	Prx2 Sm inh: >57

(27) Cn1c(COc2ccc3ccccc3c2)nnc1SCC(N)=O
  LT uptake inh: -7.2%	Prx2 Sm inh: >57

(28) Cc1ccc(NC(=O)C2(N(C(=O)Cn3nnnc3N)c3ccc(C)cc3)CCCCC2)cc1
  LT uptake inh: -8.4%	Prx2 Sm inh: >57

(29) COc1ccccc1Nc1nc(N)nc(CSc2ncccn2)n1
  LT uptake inh: 15.6%	Prx2 Sm inh: >57

(30) CCCC(=O)Nc1ccc(Cl)c(NC(=O)C(C)(C)C)c1
  LT uptake inh: 1.9%	Prx2 Sm inh: >57

By substructure: the compounds so far containing an aryl methoxy group.
(3) COc1ccccc1N(CC(=O)N1CCCCCC1)S(C)(=O)=O
  LT uptake inh: -0.9%	Prx2 Sm inh: .

(5) COc1cc(=O)n(C)c2cc(N(C)C)ccc12
  LT uptake inh: -5.9%	Prx2 Sm inh: >57

(8) COc1ccc(NC(=O)CC2CCCCC2)cc1OC
  LT uptake inh: 2.9%	Prx2 Sm inh: .

(12) COc1ccc(OCC2CNC(=O)O2)cc1 (stereo not given)
  LT uptake inh: -8.4%	Prx2 Sm inh: >57

(14) COc1ccc2sc(NC(=O)c3ccco3)nc2c1
  LT uptake inh: 9.1%	Prx2 Sm inh: >57

(26) COc1ccc(-n2c(=O)c(-c3cccc(Cl)c3)nc3cncnc32)cc1
  LT uptake inh: -4.9%	Prx2 Sm inh: >57

(29) COc1ccccc1Nc1nc(N)nc(CSc2ncccn2)n1
  LT uptake inh: 15.6%	Prx2 Sm inh: >57

Results in sequence from the entries so far:
Entries 21–30 in Prx2 Sm inh, in turn: >57, >57, >57, >57, ., >57, >57, >57, >57, >57
Entries 21–30 in LT uptake inh, in turn: ., 21.0%, -4.2%, -7.3%, 2.5%, -4.9%, -7.2%, -8.4%, 15.6%, 1.9%

More structures
(31) CCOC(=O)N1CCN(c2cc(=O)n(-c3ccc(OC)cc3)c(=O)[nH]2)CC1
  LT uptake inh: -9.1%	Prx2 Sm inh: >57

(32) O=C(c1ccco1)N1CCC2(CCCN(Cc3ccncc3)C2)CC1
  LT uptake inh: 3.2%	Prx2 Sm inh: >57

(33) CCOc1cc(C(=O)OCc2ccc(C(=O)OC)o2)cc(Br)c1OC
  LT uptake inh: -19.9%	Prx2 Sm inh: >57

(34) Cc1cc(C)n(-c2nc3ccccc3c(=O)n2OCc2ccc(F)cc2)n1
  LT uptake inh: ?	Prx2 Sm inh: >57

(35) O=S(=O)(NCC(c1ccccc1)N1CCNCC1)c1ccc(Cl)cc1 (stereo not given)
  LT uptake inh: -5.2%	Prx2 Sm inh: .

(36) CCCCN(CC)S(=O)(=O)c1ccc(C(=O)Nc2nnc(COC)o2)cc1
  LT uptake inh: -1.4%	Prx2 Sm inh: >57

(37) COC(=O)c1ccc(C(NC(=O)OCc2ccccc2)/C(C)=C/[C@@H](C)C(=O)NCc2nn(-c3ccccc3)nc2C)cc1 (stereo not given in full)
  LT uptake inh: -4.8%	Prx2 Sm inh: .

(38) C#CC1(O)CC(C)N(C)C(C)C1 (stereo not given)
  LT uptake inh: -8.3%	Prx2 Sm inh: >57

(39) CCn1c(SCC(=O)Nc2ccc3c(c2)OCO3)nnc1-c1cnccn1
  LT uptake inh: -5.8%	Prx2 Sm inh: >57

(40) Cn1cccc1CNC(=O)Nc1ccc(Cl)c(Cl)c1
  LT uptake inh: -2.1%	Prx2 Sm inh: >57

(41) c1cc2c(cc1Cn1cnnn1)OCO2
  LT uptake inh: -4.1%	Prx2 Sm inh: >57

(42) COc1cccc(C2CC(c3ccc(Cl)cc3)Nc3nc(N)nn32)c1 (stereo not given)
  LT uptake inh: 7.8%	Prx2 Sm inh: >57

(43) C[C@](O)(C(=O)Nc1ccc(S(=O)(=O)c2ccccc2)cc1)C(F)(F)F
  LT uptake inh: -8.5%	Prx2 Sm inh: >57

(44) O=C(CSc1nnc(COc2cccc3cccnc23)o1)c1ccc(F)cc1
  LT uptake inh: -4.2%	Prx2 Sm inh: >57

(45) C=CCNc1nc2ccccc2nc1NS(=O)(=O)c1cccs1
  LT uptake inh: -5.9%	Prx2 Sm inh: >57

(46) COc1ccccc1S(=O)(=O)Cc1ccc(C(=O)NC(C)c2ccc3c(c2)OCCO3)o1 (stereo not given)
  LT uptake inh: -0.9%	Prx2 Sm inh: >57

(47) N#Cc1ccc(CSc2nnc(NC(=O)C3CCCO3)s2)cc1 (stereo not given)
  LT uptake inh: -1.8%	Prx2 Sm inh: >57

(48) CC(=O)Nc1ccc(NC(=O)Cn2cnc3c(cnn3C(C)(C)C)c2=O)cc1
  LT uptake inh: -8.5%	Prx2 Sm inh: >57

(49) COC(=O)c1ccc(NC(=O)C(C)N2C(=O)c3ccccc3C2=O)cc1 (stereo not given)
  LT uptake inh: -6.0%	Prx2 Sm inh: >57

(50) O=C(NCCCN1CCOCC1)c1c(O)c2ccccc2[nH]c1=O
  LT uptake inh: 3.1%	Prx2 Sm inh: >57

(51) CCOc1ncccc1C(=O)OCC(=O)NCCc1ccc(OC)cc1
  LT uptake inh: 2.2%	Prx2 Sm inh: >57

(52) Clc1ccc2ccccc2c1
  LT uptake inh: -1.7%	Prx2 Sm inh: .

(53) CCCCc1c(O)nc(N2CCN(Cc3ccccc3)CC2)[nH]c1=O
  LT uptake inh: ?	Prx2 Sm inh: >57

(54) CCOC(=O)N/N=C1/C[C@@H](O)[C@@H](O)[C@@H]2[C@@H]3C(=O)N(Cc4ccc5c(c4)OCO5)C(=O)[C@H]3CC[C@@H]12
  LT uptake inh: 22.5%[1.6 µM]	Prx2 Sm inh: .

(55) CCSc1nnc(Cc2cc(=O)[nH]c(=O)[nH]2)n1-c1cc(C)ccc1C
  LT uptake inh: .	Prx2 Sm inh: >57

(56) CCN1CCN(CC(=O)Nc2sc3c(c2C#N)CCC(C)C3)CC1 (stereo not given)
  LT uptake inh: -10.3%	Prx2 Sm inh: >57

(57) CCCNC(=O)Nc1ccccc1C(=O)Nc1ccc(OC)cc1
  LT uptake inh: 10.1%	Prx2 Sm inh: >57

(58) CCn1cnc2c1c(=O)n(CC(=O)N1CCc3ccccc31)c(=O)n2Cc1ccccc1
  LT uptake inh: 12.9%	Prx2 Sm inh: >57

(59) CC(C)Oc1ccc2nnnn2n1
  LT uptake inh: 2.9%	Prx2 Sm inh: >57

(60) O=C1CCCc2c1nc(-c1ccco1)n2O
  LT uptake inh: .	Prx2 Sm inh: >57

Quoted at random: two compounds from above, in no set order.
(53) CCCCc1c(O)nc(N2CCN(Cc3ccccc3)CC2)[nH]c1=O
  LT uptake inh: ?	Prx2 Sm inh: >57

(57) CCCNC(=O)Nc1ccccc1C(=O)Nc1ccc(OC)cc1
  LT uptake inh: 10.1%	Prx2 Sm inh: >57
